High-throughput results as filed in PubChem.
Rango dissoc inh = qHTS Assay for Inhibitors of RanGTP induced Rango (Ran-regulated importin-beta cargo) - Importin beta complex dissociation; Potency, µM (titrated, usually from 46.1 µM), without a hit: at the top dose activity change, negative = inhibition; Snurportin-1 (Homo sapiens) + GTP-binding nuclear protein Ran (Homo sapiens) + Importin …; AID 540253, 2011; Biochemical FRET Rango-importin beta, RanGTP-induced dissociation; actives 0.071% (n = 340,000); active means falling FRET ratio curve, often poorly fitted, with flat reads before Ran was added; inconclusive means other falling curves, or compound fluorescence or quenching; inactive means flat or rising ratio curve;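 further: potency means the concentration at half of the fitted maximal effect; % of control where 0% means no effect; nearly all actives have a fitted effect of over 45% in size; -100% = wells without RanGTP and RCC1; the record marks most hits as doubtful in a second field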
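FRET read at 45 min, room temperature: inhibitors block the CFP/YFP signal rise when RanGTP (0.6 uM Ran, 2 mM GTP, 0.2 uM RCC1) frees Rango (0.1 uM) from importin beta (0.25 uM). Pre-read after 5 min compound exposure flags interference.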
miR-21 reporter = qHTS Assay for Modulators of miRNAs and/orActivators of miR-21. AID 2288, 2010. Potency, µM (highest dose often 38.3 µM), inactives show at the top dose reporter change, positive = more light. HeLa miR-21 FLuc reporter, luciferase, 48 h. 340,000 tested, under 10 active; active = well fitted rising curve with a large enough effect; inconclusive = small, poorly fitted or top-dose-only effect; inactive = no such curve, though single readings can be large or run the other way;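 further: % of control where 0% means no effect; miR-21 action dims this reporter so a rising signal means less miR-21 action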
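Compounds were titrated across several concentrations (up to approximately 40 uM) and incubated 48 hours with HeLa miR-21-FLuc reporter cells (miR-21 target sequence downstream of FLuc, endogenous miR-21). Readout was firefly luciferase luminescence after lytic detection reagent.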
Rango complex inh = qHTS Assay for Inhibitors of Rango (Ran-regulated importin-beta cargo) - Importin beta complex formation; Importin subunit beta-1 (Homo sapiens), Q14974; Rango CFP/YFP FRET sensor + importin beta, 45 min; Potency, µM (series often up to 92.2 µM), for the others: at the top dose inhibition of complex formation; actives 0.031% (n = 340,000); active = rising FRET ratio curve, often small or poorly fitted; inconclusive = mostly compound fluorescence or quenching in the first reads; inactive = flat curves in all reads;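 further: potency means the concentration at half of the fitted maximal effect; 0% = DMSO wells and 100% = buffer wells lacking importin beta; nearly all actives have a fitted effect of over 15% in size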
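FRET biosensor Rango (snurportin 1 IBB between N-terminal EYFP and C-terminal Cerulean), 50 nM in PBS/1 mM DTT/0.02% Tween-20/0.1% BSA, preincubated 5 min RT with compound; 0.125 microM importin beta added, 45 min RT, CFP/YFP FRET ratio read.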
GLA inh pH 4.5 = qHTS Assay for Inhibitors of Human alpha-Galactosidase at pH 4.5. Alpha-galactosidase A (Homo sapiens), P06280. purified enzyme, 4-MU-alpha-Gal fluorescence, pH 4.5. activity change, negative = inhibition, % at 105 µM. 230,000 tested, under 10 active; inconclusive = small, poorly fitted or top-dose-only inhibition, or a rising curve; inactive = flat fitted curve, though single readings scatter; no compound was filed as active;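 further: 0% = full activity with enzyme and -100% = basal without enzyme; dose as in the result columns while the protocol names 77 µM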
Target sequence (P06280 whole entry, looked up): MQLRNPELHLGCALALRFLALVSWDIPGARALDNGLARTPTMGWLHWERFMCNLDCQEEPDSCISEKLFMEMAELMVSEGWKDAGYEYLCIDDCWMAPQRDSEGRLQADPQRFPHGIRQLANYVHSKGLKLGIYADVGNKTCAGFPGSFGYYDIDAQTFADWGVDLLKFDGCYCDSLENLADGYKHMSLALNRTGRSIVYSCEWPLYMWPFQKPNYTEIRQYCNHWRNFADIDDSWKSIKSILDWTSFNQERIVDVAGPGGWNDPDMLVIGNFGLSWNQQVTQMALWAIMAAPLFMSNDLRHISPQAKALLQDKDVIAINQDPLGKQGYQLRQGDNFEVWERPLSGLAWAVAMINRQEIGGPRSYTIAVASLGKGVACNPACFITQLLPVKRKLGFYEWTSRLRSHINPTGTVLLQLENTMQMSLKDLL
* marks the source's active call; other numbers are inactive results; ? = inconclusive; . = not tested or not shown; & = joins results of further samples. Not all compounds are listed. The share of hits here may be higher or lower than overall.

SMILES	Rango dissoc inh	miR-21 reporter	Rango complex inh	GLA inh pH 4.5
COc1cccc(C2c3c(oc4ccccc4c3=O)C(=O)N2CCCN(C)C)c1OC (stereo not drawn)	45%	-15%	3.5%	-6
O=C(CCNS(=O)(=O)c1ccc2c(c1)CCC(=O)N2)NCc1cccnc1	-6%	1%	5.6%	1
Cn1c(Cn2c(=O)sc3ccccc32)nnc1SCC(=O)Nc1ccc2c(c1)OCO2	0%	.	-1.5%	.
CCN(CC)S(=O)(=O)c1cccc(C(=O)Nc2ccc(C#N)cc2)c1	9%	22%	-0.1%	-21
COc1ccc(OC(=O)c2cc3cc(Cl)ccc3oc2=O)cc1	2%	0%	5.2%	.
CCc1ccc(CN2CCC(Oc3ccc(C(=O)N4CCCC4)cc3)CC2)cc1	7%	-2%	-3.4%	.
COC(=O)c1sccc1N/N=C(\C)c1ccc(F)c(Cl)c1	-1%	-1%	0.3%	10
Nc1nnc(CC(=O)N2CCCCC2)s1	-7%	-1%	-3.0%	2
O=C(NCc1ccc2c(c1)OCO2)c1ccc(Cl)nc1	11%	-6%	-1.0%	9
CCOc1ccc(CCNC(=O)CSc2cc(=O)n(C)c3ccccc23)cc1OCC	-5%	-5%&-12%	-3.1%	-4

Complete entries as entered above. Order of screens: Rango dissoc inh, miR-21 reporter, Rango complex inh, GLA inh pH 4.5
`COc1ccc(OC(=O)c2cc3cc(Cl)ccc3oc2=O)cc1` in the list: 2%, 0%, 5.2%, .
`Cn1c(Cn2c(=O)sc3ccccc32)nnc1SCC(=O)Nc1ccc2c(c1)OCO2` in the list: 0%, ., -1.5%, .
`COC(=O)c1sccc1N/N=C(\C)c1ccc(F)c(Cl)c1` in the list: -1%, -1%, 0.3%, 10
`COc1cccc(C2c3c(oc4ccccc4c3=O)C(=O)N2CCCN(C)C)c1OC` (stereo not drawn) in the list: 45%, -15%, 3.5%, -6

(list continues)
SMILES	Rango dissoc inh	miR-21 reporter	Rango complex inh	GLA inh pH 4.5
COc1cc(OC)c(C(=O)C=Cc2ccc(OC)c(OC)c2)c(OC)c1	23%	.	4.4%	.
CCOc1ccc(N(CC(=O)NC2CCCCC2)C(=O)CNC(=O)c2ccco2)cc1	-11%	.	-0.6%	.
CN(C)S(=O)(=O)c1ccc(/C(O)=C2/C(=O)C(=O)N(Cc3cccnc3)C2c2ccncc2)cc1 (stereo not drawn)	0%	0%	-0.5%	-2
CCC1Oc2ccc(C)cc2N(CC(=O)NCCN2C(C)CCCC2C)C1=O (stereo not drawn)	4%	1%	2.4%	-3
CC(C)n1cc(/C=C(\C#N)S(=O)(=O)c2ccccc2)c2ccccc21	?	-5%	?	-8
CCOC(=O)c1[nH]c(C)c(C(=O)NCc2ccccn2)c1C	8%	-1%	0.1%	4
CCCNc1c(NS(=O)(=O)c2ccc(NC(=O)CC)cc2)c(=O)oc2ccccc12	5%	3%	3.0%	.
CC/C(=C\C1CCCCC1)C(NP(=O)(c1ccccc1)c1ccccc1)c1ccccc1 (stereo not drawn)	-3%	?	3.2%	?
O=C(O)CCCC(=O)Nc1ccc(Br)cc1	0%	-5%	-3.8%	2
COc1cc(/C=C/c2sc3ccccc3[n+]2CCCS(=O)(=O)[O-])ccc1O	?	13%	?	13
O=C(Nc1cccc2c1CCCC2)c1cc([N+](=O)[O-])cc([N+](=O)[O-])c1	-4%	-4%	2.2%	5
CCOC(=O)c1oc2cc(O)ccc2c(=O)c1-c1ccc(OC)cc1	-4%	-4%	4.4%	-10
COc1cccc(C2c3c(oc4ccccc4c3=O)C(=O)N2CCCN2CCOCC2)c1OC (stereo not drawn)	3%	.	-0.5%	.
Cc1ccc(C)c(NC(=O)c2nnn(Cc3ccccc3)c2N)c1	-1%	-4%	-1.1%	-1
O=C(N/N=C/c1ccc(Cl)cc1)C(=O)N1CCCCCC1	-3%	2%	-5.0%	1
CCC(NC(=S)NCc1ccc(F)cc1)c1ccc(C)cc1 (stereo not drawn)	19%	27%	-1.7%	.
O=C(Nc1nc2ccc(S(=O)(=O)N3CCCC3)cc2s1)c1ccccn1	-8%	-13%	3.0%	0
CCCn1c(NC(=O)CN2C(=O)NC3(CCCCC3)C2=O)nc2ccccc21	-2%	.	-4.6%	.
CC(C)(C)C(=O)N1CCN(c2ccc(NC(=O)c3ccc([N+](=O)[O-])o3)cc2)CC1	-2%	-8%	-3.5%	.
CCCC(=O)Nc1nnc(CCN2CCCCC2)s1	-22%	-1%	5.1%	3
Cc1ccc(S(=O)(=O)N2CCN(C(C)CC(=O)O)CC2)cc1 (stereo not drawn)	-11%	-10%	0.8%	4
O=C(CSc1nnc(C2CC2)n1C1CC1)Nc1cccc(Br)c1	-7%	.	-6.6%	.
CCn1nc(NC(=O)c2ccccc2)c2cc3cccc(C)c3nc21	?	12%	?	0
CCOC(=O)N1CCN(c2nc(-c3ccccc3)c3cc(C)ccc3n2)CC1	?	3%	?	.
CCOC(=O)c1cc(-c2ccccc2)nn1CC1CC(c2cccnc2)=NO1 (stereo not drawn)	-1%	.	-4.3%	.
CCOc1ccccc1CN1CCN(CC2=Cc3cc(OC)ccc3OC2)CC1CCO (stereo not drawn)	28%	8%	-3.3%	-10
Cc1cccc(N2CCN(Cc3nc(CC4CC4)no3)CC2)n1	-7%	4%	0.7%	-5
Cc1ccnn1CC(=O)N/N=C/c1ccco1	-3%	0%	-1.9%	-18
CCc1ccccc1NC(=O)CCc1nc(-c2cccs2)no1	6%	-21%	-4.1%	-23
O=C(COC(=O)c1ccc2ccccc2n1)c1ccc(F)cc1	-14%	6%	0.6%	11
Cc1ccsc1/C=N/NC(=O)CC(=O)NCC(C)C	-4%	3%	1.8%	4
CC(C)Oc1ccc(CSC(=N)N)cc1	15%	4%	?	1
Cc1nnc(NC(=O)c2ccc(Br)cc2)s1	-3%	-20%	-1.3%	1
O=C(Cn1ncc(Cl)c(Cl)c1=O)N1CCc2ccccc21	10%	?	-0.8%	3
Cc1ccnc(NC(=O)c2ccc(S(=O)(=O)NCc3ccco3)cc2)c1	11%	.	?	.
C[C@@H](CN=[N+]=[N-])CN1CC[C@H](NC(=O)OCc2ccccc2)CCC1=O	12%	1%	-0.6%	.
CC(C)(C)c1ccccc1NC(=S)NC1CCCC1	-8%	12%	0.8%	.
COc1ccc(CNC(=O)c2cccc(NC(=O)CC3SC(N4CCCCC4)=NC3=O)c2)cc1 (stereo not drawn)	6%	.	1.3%	.
COC(=O)c1ccc(C2c3[nH]c4ccccc4c3C[C@H]3C(=O)N(C4CCN(Cc5ccccc5)CC4)CC(=O)N23)cc1 (stereo partly drawn)	-3%	13%	2.8%	.
CCOc1ccc(CC(=O)NC2CCN(Cc3ccccc3)CC2)cc1	-4%	-1%	-0.5%	.
CC(=O)c1ccc(N(CC(=O)NC2CCCC2)C(=O)CCC(=O)Nc2cc(C)on2)cc1	-4%	-7%	0.4%	.
CCOC(=O)c1ccccc1N/C=C/C(=O)c1cccs1	?	-60%	?	0
CC1=NN(c2ccc(S(=O)(=O)O)cc2Cl)C(=O)C1	2%	1%	-1.4%	6
Cc1ccc(-n2c(SCc3ccc(C(=O)O)cc3)nnc2-c2ccncc2)cc1	-6%	5%	-0.2%	-4
CCOC(=O)C1CCN(C(=S)Nc2ccc(Cl)cc2C)CC1	1%	2%	0.6%	2
CCCOc1ccc2[nH]cc(C(=O)O)c(=O)c2c1	0%	0%	-3.3%	1
N#CNc1nc(O)cc(=O)[nH]1	0%	0%	-0.6%	1
O=C(Nc1cccc(S(=O)(=O)NCc2ccco2)c1)c1cc(-c2ccccc2)nc2ccccc12	0%	29%	-1.8%	-23
Cc1nn2c(CN(C(=O)c3ccco3)c3ccccc3)nnc2c2ccccc12	-13%	.	2.7%	.
Cc1cc(C)c2c(=O)[nH]c(SCC(=O)Nc3ccc(N(C)C)cc3)nc2n1	-9%	5%	?	-19

Taken from above:
`CC/C(=C\C1CCCCC1)C(NP(=O)(c1ccccc1)c1ccccc1)c1ccccc1` (stereo not drawn) in Rango dissoc inh → -3%
`Cc1ccc(S(=O)(=O)N2CCN(C(C)CC(=O)O)CC2)cc1` (stereo not drawn) in Rango dissoc inh → -11%
`COc1cc(OC)c(C(=O)C=Cc2ccc(OC)c(OC)c2)c(OC)c1` in Rango complex inh → 4.4%
`CCc1ccc(CN2CCC(Oc3ccc(C(=O)N4CCCC4)cc3)CC2)cc1` in Rango complex inh → -3.4%
`CCN(CC)S(=O)(=O)c1cccc(C(=O)Nc2ccc(C#N)cc2)c1` in Rango complex inh → -0.1%
`O=C(Nc1cccc2c1CCCC2)c1cc([N+](=O)[O-])cc([N+](=O)[O-])c1` in Rango complex inh → 2.2%

Next section
SMILES	Rango dissoc inh	miR-21 reporter	Rango complex inh	GLA inh pH 4.5
CCc1ccc(C2=C/C(=C/c3cccnc3)C(=O)O2)cc1	?	-9%	?	1
O=c1c2ccc(Cl)cc2[nH]c(=S)n1CCC1=CCCCC1	1%	-8%	-1.3%	12
COc1cccc(CNC(=O)c2cc(C)nc3ccccc23)c1	-3%	3%	4.8%	.
Cc1c(C(=O)N2CC(C)OC(C)C2)[nH]c2ccc(Br)cc12 (stereo not drawn)	0%	6%	-1.0%	.
CSc1ccc(/C=C(\C#N)C(=O)NC2CCCCC2)cc1	1%	-7%	0.3%	10
O=C(CNc1cc(S(=O)(=O)N2CCOCC2)ccc1N1CCOCC1)Nc1cccc(C(F)(F)F)c1	1%	.	-0.8%	.
CN=C(C)/C(C(=O)OC)=C(/O)c1ccccc1F	-2%	-16%	0.9%	-1
COc1ccccc1NC(=S)N1CCN(c2ccccn2)CC1	7%	-8%	2.8%	5
CCN1CCN(C(=O)c2nn(-c3ccc(C)cc3)c(=O)c3c2c2ccccc2n3C)CC1	-15%	-13%	0.4%	-4
O=C1CCC/C(=N\NC(=O)c2ccc(NS(=O)(=O)c3ccc(Br)cc3)cc2)C1	-9%	-4%	-1.9%	-14
COc1ccc(C(=O)Oc2cc(/C=N/NC(N)=S)ccc2OC)cc1	1%	-11%	-2.2%	-1
Cc1nc2cc(NCc3ccc(Cl)cc3)ccc2n1C	-15%	-26%	0.8%	.
O=c1c2cc(NC(=S)N3CCCCCC3)ccc2nc2n1CCCCC2	36%	0%	0.1%	0
COc1ccc(OC)c(NC(=O)c2sc3nc(Cc4ccccc4)cc(C(F)(F)F)c3c2N)c1	-29%	-1%	?	7
CC1(c2ccc3c(c2)OCCO3)NC(=O)N(CC(=O)Nc2ccccc2F)C1=O (stereo not drawn)	7%	.	1.3%	.
Cc1ccc(C(=O)NC(=S)NCCCN2CCOCC2)cc1	-5%	-26%	-1.4%	-4
CCOC(=O)n1c(SCC(N)=O)nc2ccccc21	1%	0%	-0.1%	-14
Cc1cc(Cl)ccc1NC(=O)C1CCCN1C(=O)c1cccs1 (stereo not drawn)	-13%	-11%	0.9%	-2
CC(C)c1ccc(/C=C2\SC(=S)N(CCC(=O)NCCCn3ccnc3)C2=O)cc1	-10%	20%	2.4%	.
Cn1ccnc1SCC(=O)Nc1ccc(Br)cc1C(F)(F)F	8%	-42%	-2.0%	.
COc1ccc2nc(/N=C/c3cccc(OC)c3O)sc2c1	-10%	-16%	-0.3%	.
COC(=O)c1cc2ccsc2n1Cc1nc(-c2ccc(OC)cc2)oc1C	8%	9%	-0.7%	-7
COc1ccccc1NC(=O)NCc1nc(-c2ccc(C(F)(F)F)cc2)no1	14%	0%	0.3%	3
C=CCn1c(=O)c2ccc(C(=O)NCc3ccccc3)cc2n(Cc2ccc(Cl)cc2)c1=O	0%	-3%	-2.2%	3
CSc1ncc(C(=O)Nc2cccc(Cl)c2)c(C)n1	4%	-6%	-1.5%	.
CNc1ccc(Br)cc(C(=O)/C=C/c2ccc(OC)cc2)c1=O	-14%	9%	-0.2%	-2
